# Marburg entry inh = Marburg virus entry inhibition; actives 1.8% (n = 300,000); Marburg virus pseudotyped entry inhibition, cell reporter; control for the full effect not named in the record; about a third of the inactives were read at about 46 µM; Potency, µM (titrated, usually from 37.8 µM), for the others: at the top dose activity change, negative = inhibition, hits mostly inhibitors; AID 540276; active = well fitted inhibition curve with a large enough effect; inconclusive = small, poorly fitted or top-dose-only effect, or effect the other way; inactive = flat fitted curve, though single readings scatter; tested in HEK293 cells; about a fifth of its hits are not listed in these tables; further: on the % scale 0 is the no-effect control and ±100 the full control effect; luciferase read-out
# 2A StopGo = lowers the luciferase signal of an FMDV 2A StopGo reporter. human cells with a luciferase reporter of 2A StopGo recoding; control for the full effect not named in the record. Potency, µM (top dose mostly 57.9 µM), without a hit: top-dose signal change, negative = less light. actives 1.2% (n = 410,000); active = well fitted falling curve with a large enough effect; inconclusive = small, poorly fitted or top-dose-only effect; inactive = no such curve, though single readings can be large or run the other way; tested in HEK293T cells; further: on the % scale 0 is the no-effect control and ±100 the full control effect; nearly all actives have a fitted effect of over 45% in size; luciferase light after 4 h
# NS1 inh = blocks influenza NS1 protein function. S. cerevisiae slowed by influenza A NS1, growth recovery by OD600. Potency, µM (doses to about 46.1 µM), without a hit: at the top dose activity, positive = more growth. actives 0.4% (n = 270,000); further: actives are rising curves; nearly all actives have a fitted effect of over 50% in size
#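 S. cerevisiae expressing influenza A NS1, grown in glucose, washed, then diluted 1:100 into pH 6.0 -URA galactose medium with 23 nl compound. Growth recovery read as OD600; NS1-free strain serves as control.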
# Cruzain inh Det = cruzain (T. cruzi) inhibition with detergent. purified cruzain, Z-FR-AMC fluorescence, 0.01% Triton. Potency, µM, without a hit: max response, negative = inhibition, most hits filed as inhibitors. actives 0.43% (n = 200,000). AID 1478; active means well fitted curve in the direction sought with a large enough effect; inconclusive means small, poorly fitted or top-dose-only effect, or another doubt; inactive means no such curve, though single readings can be large; an effect the other way counts as inactive or inconclusive;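 further: plate controls were neutral wells for no effect and buffer without enzyme for full effect; nearly all actives have a fitted effect of over 40% in size; top concentration of the series not given in the record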
# Target sequence (P25779 123-467 limits assumed): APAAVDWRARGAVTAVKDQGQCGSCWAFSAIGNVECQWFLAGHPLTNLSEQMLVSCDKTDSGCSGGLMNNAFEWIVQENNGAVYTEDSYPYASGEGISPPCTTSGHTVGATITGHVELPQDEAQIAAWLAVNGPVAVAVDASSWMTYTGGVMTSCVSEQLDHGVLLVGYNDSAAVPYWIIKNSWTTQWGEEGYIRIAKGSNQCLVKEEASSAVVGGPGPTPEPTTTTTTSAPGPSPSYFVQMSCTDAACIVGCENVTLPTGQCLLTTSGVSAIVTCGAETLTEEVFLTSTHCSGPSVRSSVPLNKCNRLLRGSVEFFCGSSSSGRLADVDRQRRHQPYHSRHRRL
#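 Enzyme 1.5 nM, Z-FR-AMC 2 uM, NaOAc 100 mM pH 5.5, DTT 5 mM, Triton X-100 0.01%; 15 min RT compound preincubation; kinetic ex360/em450, 60 s delta.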
# RE007 growth inh = less growth of the S. pombe RE007 Vpr strain; S. pombe RE007 Vpr strain, BacTiter-Glo ATP luminescence, 24 h; control for the full effect not named in the record; Potency, µM (series often up to 92.2 µM), inactives show at the highest dose activity change, negative = less growth; actives 0.21% (n = 360,000); active = well fitted falling curve with a large enough effect; inconclusive = small, poorly fitted or top-dose-only effect; inactive = no such curve, though single readings can be large or run the other way;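 further: on the % scale 0 is the no-effect control and ±100 the full control effect; nearly all actives have a fitted effect of over 50% in size; the assay follows cell death caused by Vpr and the record does not say whether a fall means rescue or toxicity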
#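 Fission yeast RE007 carrying one integrated HIV-1 vpr copy, seeded at OD 0.01 in PMG+AL medium with 23 nL pinned compound. Grown 24 h at 30 degrees; viability read by BacTiter-Glo luminescence after 5 min.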
# SARS PLP yeast = blocks SARS-CoV papain-like protease in a yeast assay. S. cerevisiae expressing SARS-CoV PLpro, growth rescue; control for the full effect not named in the record. Potency, µM (titrated, usually from 32.9 µM), without a hit: at the highest dose activity, positive = growth rescue. actives 0.19% (n = 330,000); further: 0% is about no effect; nearly all actives have a fitted effect of over 55% in size; growth read by luminescence after 48 h
# LASV entry inh = Lassa virus entry inhibition; Lassa virus pseudotype entry inhibition, cell reporter; control for the full effect not named in the record; Potency, µM (highest dose often 37.9 µM), for the others: top-dose activity change, negative = inhibition, actives largely listed as inhibitors; actives 1.2% (n = 300,000); AID 540256; active means well fitted inhibition curve with a large enough effect; inconclusive means small, poorly fitted or top-dose-only effect, or effect the other way; inactive means flat fitted curve, though single readings scatter; tested in HEK293 cells; further: on the % scale 0 is the no-effect control and ±100 the full control effect; nearly all actives have a fitted effect of over 50% in size; luciferase read-out
# Cruzain noTriton = cruzain (T. cruzi) inhibition without detergent; purified cruzain, Z-FR-AMC fluorescence, no detergent; Potency, µM, inactives show max response, negative = inhibition, actives largely listed as inhibitors; actives 2.3% (n = 200,000); AID 1476; active means well fitted curve in the direction sought with a large enough effect; inconclusive means small, poorly fitted or top-dose-only effect, or another doubt; inactive means no such curve, though single readings can be large; an effect the other way counts as inactive or inconclusive;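 further: plate controls were enzyme without inhibitor for no effect and buffer without enzyme for full effect; nearly all actives have a fitted effect of over 40% in size; top concentration of the series not given in the record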
#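 Detergent-free condition (0.00005% Triton X-100) in acetate buffer pH 5.5 with DTT. 1.5 nM enzyme and compound were pre-mixed 15 min, then 2 uM Z-FR-AMC substrate added; reaction progress from fluorescence change between first and third reads (60 s).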
# The depositor's hits bear a star; ? = inconclusive; . = not tested or not shown; & = joins results of further samples; [ ] = remark or other dose. Unless noted, the call rests on the fitted dose curve; in most records, active means well fitted rising curve with a large enough effect; inconclusive means small, poorly fitted or top-dose-only effect; inactive means no such curve, though single readings can be large or run the other way. Potency means the concentration at half of the fitted maximal effect.
# Fields – Marburg entry inh, 2A StopGo, NS1 inh, Cruzain inh Det, RE007 growth inh, SARS PLP yeast, LASV entry inh, Cruzain noTriton
> COc1ccc(OC)c(C2c3[nH]c4ccccc4c3C[C@H]3C(=O)N(C4CC4)CC(=O)N23)c1 (stereo partly drawn)
  ., 15.8%, 11.2%, ., -1.3%, 1.8%, ., .
> O=C(Nc1ccc(-c2cn3cccnc3n2)cc1)c1cc(Br)ccc1Cl
  18.6%[46.1 µM], -5.3%, ., -0.9%, ., ., 3.3%[46.1 µM], -3.5%
> Cn1c(=O)cc(OCCCC(=O)Nc2ccccn2)c2ccccc21
  10.8%, 58.1%[activator], -52.6%, 2.6%, 0.9%, ?, 5.8%, -7.1%
> CCc1ccc(OCCNC(=O)OCc2ccccc2)cc1
  ?, -2.6%, -17.0%, -5.1%, -30.0%, -0.7%, -4.7%, -6.7%
> Nc1ccccc1Oc1c(F)c(F)c(Oc2ccccc2N)c(F)c1F
  ?, -24.7%, 3.4%, ., -6.4%, 0.2%, -38.7%, .
> CCOC(=O)Cn1c(=O)cc(C)c2c(C)nn(-c3cccc(F)c3)c21
  ., -15.7%, ., -1.1%, ., ., 23.2%[46.1 µM], -5.8%
> CCC(=O)N(Cc1ccco1)c1nc(-c2ccccc2)cs1
  -11.1%, 6.2%, -1.7%, 0.8%, -0.1%[3.69 µM], -3.7%, -13.7%, 0.6%
> Cc1cccc(NC(=O)Cn2cc(S(=O)(=O)N3CCCC3)c(S(=O)(=O)N3CCCC3)c2)c1C
  ., -3.9%, ., 2.2%, ., ., 11.1%[46.1 µM], 0.6%
> O=C(O)COc1ccccc1/C=C1\SC(=S)N(c2cccnc2)C1=O
  -15.2%[46.1 µM], -16.8%, 1.6%, ., -14.7%, 0.5%, ?, .
> OCCC1CN(Cc2cccs2)CCN1Cc1ccccc1 (stereo not drawn)
  -7.4%[46.1 µM], -8.3%, 0.2%, ., 13.5%, -0.2%, 2.3%, .
> COc1ccccc1OCC(=O)OCC(=O)NCCN1C(=O)CSC1=O
  ?, 22.8%, -1.9%, -0.1%, 0.9%[3.69 µM], -1.0%, 3.6%, 3.3%
> COCCn1c(SCC(=O)Nc2cccc(C)c2)nnc1C(C)C
  24.6%, -19.6%, -5.7%, -0.8%, -1.5%, 1.6%, 4.9%, 6.6%
> Cc1ccc(C(=O)c2cn(Cc3c(F)cccc3Cl)c3nc(C)ccc3c2=O)cc1
  -1.8%[46.1 µM], -26.7%, ., -1.3%, ., ., 9.2%[46.1 µM], -13.8%
> COc1ccc(C(=O)CSc2nnc(CNc3ccc(F)cc3)o2)cc1
  0.1%[46.1 µM], ?, ., ., 11.7%, 1.0%, ., .
> COc1ccc(OCCC(=O)OCC(=O)NC2CCCCCCC2)cc1
  ?, 11.8%, ., ., -5.7%, -12.7%, 14.6%[46.1 µM], .
> O=C(N/N=C/c1cc(Cl)cc([N+](=O)[O-])c1O)c1ccc2c(c1)OCO2
  ., 18.3%, 11.9%, ., -10.5%, -5.9%, ., .
> Cc1c(C)c2ccc(OCC(=O)NCCCn3ccnc3)cc2oc1=O
  ., -10.2%, -9.9%, ., -7.9%, -3.4%, ., .
> Cc1c(Cl)cccc1NC(=O)CSc1nncn1-c1cccnc1
  -4.7%[46.1 µM], -8.3%, -10.6%, ., 9.3%, -2.0%, ., .
> CCCCNC(=O)CNC(=S)N(Cc1ccccc1)Cc1cccs1
  -28.0%[46.1 µM], 8.9%, ., ., -5.1%, 0.2%, ?, .
> CCCCCCCCc1nnc(N)s1
  ?, -15.8%, -5.1%, ., 29.4%, -0.6%, ?, .
> N#Cc1c2n(c(=S)n(-c3ccc(F)cc3)c1=O)CCCCC2
  ?, 4.8%, ., ., 0.0%, -1.4%, -12.3%[46.1 µM], .
> O=C1C2CCN(CC2)C1(CO)CO
  ., 0.7%&-10.7%, -2.8%, 0.2%&0.2%&3.7%, 9.5%, ., ., 10.6%&0.6%&6.0%
> COc1ccccc1CC(NC(C)=O)C(=O)NC1CCN(C(=O)Nc2ccccc2C)CC1 (stereo not drawn)
  -23.5%[46.1 µM], 6.2%, 0.8%, ., -6.0%, 15.9%, 7.6%[46.1 µM], .
> CC1CCCCN1CCn1cnc2c([nH]c3ccccc32)c1=O (stereo not drawn)
  1.9%, 10.5%, -0.4%, -2.3%, 3.0%, -10.5%, 8.3%, -14.7%
> CCOC(=O)c1c(NC(=O)CN2C(=O)C(=O)N(CC(C)C)C2=O)sc(C)c1CC
  -17.4%, -15.7%, ., ., 3.0%, 3.2%, 7.6%, .
> CCN(CC)C(=O)CSc1nc(-c2ccccc2)cc(-c2ccc(OC)cc2)c1C#N
  9.3%[46.1 µM], 2.5%, ., -3.2%, ., ., 10.0%[46.1 µM], -12.9%
> CCCCCNC(=O)c1cc2c(=O)n3ccccc3nc2n1C
  ., 21.8%, ., -4.0%, ., ., ?, 19.8%
> COc1ccc(-n2cc(-c3ccccc3)c3c(NCc4cccc(Cl)c4)ncnc32)cc1
  ., -21.5%, ., 0.0%, ., ., -15.5%[46.1 µM], -2.8%
> CCOC(=O)c1cc(NC(=O)NC2CCCCC2)c(C)nc1C
  4.9%[46.1 µM], -3.9%, 12.5%, ., -12.4%, -2.0%, 24.2%, .
> O=C(CSc1nc2ccsc2c(=O)n1-c1ccc(Cl)cc1)NCc1ccc(Cl)cc1
  ., -2.1%, ., -3.3%, ., ., ?, -0.4%
> O=C(Cn1ncc2c1-c1ccccc1OC2)N1CCN(c2ccccc2)CC1
  9.9%[46.1 µM], -19.7%, ., 0.1%, ., ., ., -6.6%
> Cc1c(C(=O)NCCC2=CCCCC2)oc2ccc(S(=O)(=O)N3CCC4(CC3)OCCO4)cc12
  ?, 17.8µM*, -6.6%, 1.8%, 0.7%, -10.6%, ?, ?
> CN(C)Cc1c(C(=O)N/N=C/c2cccc(OCc3ccccc3)c2)nnn1-c1nonc1N
  ., -23.9%, -15.8%, ., -6.6%, 0.5%, ., .
> Cc1ccccc1OCC(=O)OCC(=O)NCc1cccs1
  0.5%, -6.4%, -32.8%, -6.2%, 0.6%, 5.6%, -13.7%, 8.1%
> CCCn1c(N)c(N(CCOC)C(=O)CSc2cc(C)c3ccccc3n2)c(=O)[nH]c1=O
  2.8%[46.1 µM], 9.0%, ., ., 4.5%, ., 0.3%, .
> COc1cc2nc(CN3C(=O)c4ccccc4C3=O)oc(=O)c2cc1OC
  0.2%, -17.0%, -13.7%, -0.4%, 19.6%, 22.4µM*, 1.8%, 0.9%
> Cc1ccc(OCC(=O)NNC(=O)c2ccco2)c(C)c1
  ?, 6.2%, -11.4%, ., 4.7%, -7.9%, ?, .
> COc1ccc(NS(=O)(=O)c2ccc(NC(C)=O)cc2)cc1OC
  -17.7%, ?, 11.7%, -3.0%, 11.8%, 1.4%, -6.9%, -3.5%
> CCCCCn1c(C(C)NC(=O)CCC)nc2ccccc21 (stereo not drawn)
  ., -17.8%, -12.1%, 1.0%, -4.9%, -0.3%, ., 6.9%
> CN1/C(=C/C(=S)NC(=O)C2CCC2)C(C)(C)c2ccccc21
  25.8%, 34.2%[activator], ., ., -10.7%, 0.1%, -17.7%, .
> Nc1ncnc2c1ncn2C1CCCC(CO)O1 (stereo not drawn)
  1.0%[46.1 µM], 18.2%, ., ., 12.6%, ., -5.0%[46.1 µM], .
> COc1ccccc1-n1cnnc1SCC(=O)Nc1cccc(S(=O)(=O)N2CCCCC2)c1
  0.6%, ., 3.2%, -4.1%, ., 14.7%, 4.3%, -1.2%
> COc1ccccc1CNS(=O)(=O)c1cc2c3c(c1)CCC(=O)N3CCC2
  -12.7%[46.1 µM], -10.9%, ., ., 8.9%, 1.2%, -11.7%, .
> CC(=O)c1ccc(N2CCN(S(=O)(=O)c3cn(C)cn3)CC2)cc1
  8.6%[46.1 µM], -10.4%, -2.5%, ., 12.0%, 3.6%, ?, .
> O=C(CSc1ccc2nnc(-c3ccccn3)n2n1)Nc1ccc2c(c1)OCO2
  4.2%, 0.9%, -3.9%, 6.6%, 14.4%, 6.4%, ., -1.5%
> O=C(Nc1cccc(Cl)c1)Nc1nnc(CC2=CCCCC2)s1
  17.2%, ?, -2.2%, -4.6%, -6.2%, -2.1%, 7.9%, ?
> CCOc1ccc(/C=C/c2nc(C#N)c(N3CCN(c4ccccc4)CC3)o2)cc1
  17.7%[46.1 µM], -8.8%, ., 1.7%, ., ., 24.4%[46.1 µM], -4.1%
> COc1cc(/C=C2\SC(=S)N(NS(=O)(=O)c3ccc(C)cc3)C2=O)cc(OC)c1OC
  -2.2%[46.1 µM], -13.4%, 1.2%, ., -9.1%, -1.6%, 20.2%[46.1 µM], .
> COc1ccc(S(=O)(=O)N2CCN(c3ccccc3F)CC2)cc1-c1noc(C)n1
  9.1%[46.1 µM], 7.2%, ., -4.0%, ., ., 16.3%[46.1 µM], 11.6%
> CCN1CCN(C(=O)c2cc(COc3ccc(C(C)=O)cc3OC)on2)CC1
  ?, 7.8%, -11.8%, ., -10.2%, -2.9%, ?, .
> COc1ccc(N2CCN(C(=O)CCc3nnc4n(C)c(=O)c5sccc5n34)CC2)cc1
  0.8%[46.1 µM], -16.9%, ., -1.3%, ., ., -2.5%[46.1 µM], -4.8%
> COc1cc(C(=O)NCC(=O)N/N=C(/C)c2cccs2)cc(OC)c1OC
  ?, -22.3%, -3.0%, -3.8%, 6.3%, ?, -3.2%, -4.2%
> CCc1sc(Nc2cccc(Cl)c2C)nc1-c1cc2cccc(OC)c2oc1=O
  ., 6.9%, ., 0.4%, ., ., -7.6%[46.1 µM], 1.6%
> Cc1cccc(-c2noc(Cc3ccccc3)n2)c1
  20.7%, ., -11.9%, 1.2%, 9.6%, 2.0%, 8.5%, -2.8%
> O=C(CSc1ccc(-c2ccc(F)cc2)nn1)NCC1CCCO1 (stereo not drawn)
  ?, -5.9%, ., ., -4.5%, -0.5%, -18.0%[46.1 µM], .
> O=C(NCc1ccc(F)cc1)Nc1ccccc1
  ., 44.6%[activator], -9.1%, ., 6.3%, 0.4%, ., .

# Source: PubChem BioAssay (National Center for Advancing Translational Sciences (NCATS))
